HIV Env fusion – inhibitors of HIV Env-mediated cell fusion; HeLa-JRFL Env/CEM21 cell fusion, luciferase; inhibition, % at 12.3 µM; 360,000 compounds, 1.1% hits;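 active = mean replicate inhibition score of at least 50 and every replicate individually at or above 50; inconclusive = only one of the two criteria met; inactive = mean below 50 and not all replicates reaching 50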;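 also: 0% = plate neutral controls and 100% = maraviroc near 300 nM; one replicate is shown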
Yeast UUG start – yeast start codon fidelity modulation. S. cerevisiae UUG-firefly luciferase reporter, luminescence/redox ratio. activity score, % at 18.7 µM. 350,000 compounds, 0.13% hits;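 active = replicate mean at a twofold rise or more, about +100% in these data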;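 also: firefly luciferase made from a UUG start codon reports start codon fidelity; reporter light over untreated wells divided by growth signal over untreated wells; some hits fall short of that in this replicate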
An asterisk follows results filed as active; ? = inconclusive; [ ] = another dose, or the depositor's remark.

SMILES	HIV Env fusion	Yeast UUG start
COc1ccc(CN(C)C[C@@H]2OCCCC[C@@H](C)Oc3ccc(NC(=O)Nc4ccc5c(c4)OCO5)cc3C(=O)N([C@@H](C)CO)C[C@H]2C)cc1	8.7[16.7 µM]	22.1
C[C@@H]1CN([C@H](C)CO)C(=O)c2cc(NC(=O)C3CCCCC3)ccc2O[C@@H](C)CCCCO[C@H]1CN(C)S(=O)(=O)c1ccccc1	-9.1[16.7 µM]	-5.6
CCC(=O)Nc1ccc2c(c1)OC[C@@H](C)N(Cc1ccncc1)C[C@@H](C)[C@@H](OC)CN(C)C2=O	-16.6[16.7 µM]	6.1
C[C@H](CO)N1C[C@H](C)[C@H](CN(C)Cc2ccncc2)OCCCC[C@H](C)Oc2ccc(N(C)C)cc2C1=O	19.3[16.7 µM]	-5.8
C[C@H](CO)N1C[C@H](C)[C@@H](CN(C)Cc2cccnc2)Oc2ncc(C#CCc3ccccc3)cc2C1=O	14.0[16.7 µM]	3.2
COc1ccccc1CNC(=O)C[C@@H]1C[C@H]2c3cc(NC(=O)Nc4ccccc4F)ccc3O[C@H]2[C@H](CO)O1	-10.4[16.7 µM]	-3.8
Cc1ccc(S(=O)(=O)N(C)C[C@@H]2Oc3cc(C#CC4CCCC4)ccc3S(=O)(=O)N([C@H](C)CO)C[C@H]2C)cc1	58.4*[16.7 µM]	-3.7
COC(=O)C[C@@H]1C[C@@H]2c3cc(NC(=O)C4CCC4)ccc3O[C@@H]2[C@H](CO)O1	2.7[16.7 µM]	-0.8
CN1C(=O)c2cc(NC(=O)c3cccc(F)c3)ccc2OC[C@@H]2O[C@@H](CC(=O)O)CC[C@@H]21	5.9[16.7 µM]	9.4
C[C@@H]1CCCCO[C@H](CN(C)C(=O)C2CCCCC2)[C@@H](C)CN([C@@H](C)CO)C(=O)c2cc(NS(=O)(=O)c3cccs3)ccc2O1	-11.3[16.7 µM]	14.3
CO[C@@H]1CN(C)C(=O)c2ccc(NC(=O)C3CCOCC3)cc2OC[C@@H](C)N(Cc2ccc(F)cc2)C[C@H]1C	35.4[16.7 µM]	-3.8
C[C@@H]1CN([C@@H](C)CO)C(=O)c2cc(/C=C/c3ccccc3)cnc2O[C@H]1CN(C)S(=O)(=O)c1ccc(F)cc1	-24.2[16.7 µM]	-10.9
C[C@@H]1CN([C@H](C)CO)S(=O)(=O)c2ccc(C#CC3(O)CCCC3)cc2O[C@H]1CN(C)C(=O)Nc1ccccc1	-78.7[16.7 µM]	1.2
CC(C)NC(=O)N[C@H]1CC[C@@H](CCNC(=O)C2CC2)O[C@H]1CO	-13.7[16.7 µM]	-6.6
COC(=O)C1=C2CC[C@H](CO)NC(=O)N[C@H](Cc3ccccc3)C(=O)NCc3cn(nn3)C[C@H](Cc3ccccc3)NC(=O)c3oc(c(C(=O)OC)c3C(=O)OC)CC[C@H](CO)NC(=O)N[C@H](Cc3ccccc3)C(=O)NCc3cn(nn3)C[C@H](Cc3ccccc3)NC(=O)C(=C1C(=O)OC)O2	-9.2[16.7 µM]	4.7
C[C@@H]1CN([C@H](C)CO)S(=O)(=O)c2ccc(C#Cc3ccncc3)cc2O[C@@H]1CN(C)C(=O)C1CC1	-33.1[16.7 µM]	-4.5
Cc1noc(C)c1S(=O)(=O)N(C)C[C@@H]1Oc2ccc(NC(=O)Cn3cnnn3)cc2CC(=O)N([C@@H](C)CO)C[C@@H]1C	-10.7[16.7 µM]	-1.2
Cc1ccc(S(=O)(=O)N(C)C[C@H]2OCCCC[C@H](C)Oc3ccc(NC(=O)Nc4ccc(C(F)(F)F)cc4)cc3C(=O)N([C@H](C)CO)C[C@@H]2C)cc1	17.2[16.7 µM]	-15.0
CCCC#Cc1ccc2c(c1)O[C@H](CN(C)C(=O)c1ccncc1)[C@@H](C)CN([C@H](C)CO)S2(=O)=O	-16.1[16.7 µM]	-13.7
CCCN(C)C[C@@H]1Oc2cc(C#C[C@H](C)O)ccc2S(=O)(=O)N([C@H](C)CO)C[C@@H]1C	-0.1[16.7 µM]	5.4
O=C(C[C@H]1C=C[C@H](NC(=O)C2CCC2)[C@H](CO)O1)NCc1ccccc1Cl	8.5[16.7 µM]	-5.9
CCC(=O)N(C)C[C@@H]1Oc2ncc(/C=C/c3ccccc3)cc2C(=O)N([C@@H](C)CO)C[C@H]1C	-12.3[16.7 µM]	14.2
C[C@@H]1CN([C@H](C)CO)S(=O)(=O)c2ccc(/C=C/c3ccccc3)cc2O[C@@H]1CN(C)C(=O)NC1CCCC1	-1.4[16.7 µM]	-4.8
CNC[C@H]1OCCCC[C@@H](C)Oc2ccc(NC(=O)c3ccncc3)cc2C(=O)N([C@@H](C)CO)C[C@H]1C	2.2[16.7 µM]	-4.5
C[C@H]1CN([C@@H](C)CO)C(=O)c2cc(C#Cc3cccnc3)cnc2O[C@@H]1CN(C)Cc1ccccc1	-1.0[16.7 µM]	-11.9
Other results.
SMILES	HIV Env fusion	Yeast UUG start
Cc1noc(C)c1NC(=O)Nc1ccc2c(c1)CC(=O)N([C@H](C)CO)C[C@H](C)[C@@H](CN(C)S(=O)(=O)c1cn(C)cn1)O2	0.0[16.7 µM]	2.4
C[C@@H]1CCCCO[C@H](CN(C)S(=O)(=O)c2ccc(F)cc2)[C@@H](C)CN([C@H](C)CO)C(=O)c2cc(NS(C)(=O)=O)ccc2O1	-10.8[16.7 µM]	-2.0
CCNC(=O)C[C@@H]1CC[C@@H](NC(=O)C2CCOCC2)[C@H](CO)O1	2.4[16.7 µM]	-12.1
CCCC(=O)Nc1ccc2c(c1)OC[C@@H](C)N(C(=O)CC)C[C@H](C)[C@@H](OC)CN(C)C2=O	4.3[16.7 µM]	-1.8
C[C@@H]1CN([C@H](C)CO)C(=O)CCCn2cc(nn2)CO[C@@H]1CN(C)CC1CCCCC1	4.5[16.7 µM]	-3.6
CNC[C@H]1Oc2c(NC(=O)C3CCCCC3)cccc2C(=O)N([C@@H](C)CO)C[C@H]1C	-7.8[16.7 µM]	-5.3
C[C@@H]1CN([C@H](C)CO)C(=O)c2cc(NC(=O)C3CCCCC3)ccc2O[C@@H](C)CCCCO[C@H]1CN(C)C(=O)Nc1ccc(C(F)(F)F)cc1	48.2[16.7 µM]	-8.4
COc1ccc(NC(=O)N(C)C[C@@H]2OCCCC[C@H](C)Oc3ccc(NC(=O)Cc4ccccc4)cc3C(=O)N([C@@H](C)CO)C[C@@H]2C)cc1	-88.8[16.7 µM]	5.3
C[C@@H]1CN([C@H](C)CO)C(=O)Cc2cc(NS(=O)(=O)c3cn(C)cn3)ccc2O[C@@H]1CN(C)Cc1ccc2c(c1)OCO2	-28.5[16.7 µM]	-16.0
C[C@@H]1CN([C@H](C)CO)S(=O)(=O)c2ccc(C#CC(C)(C)O)cc2O[C@H]1CN(C)Cc1ccccc1	-2.5[16.7 µM]	9.4
C[C@@H]1CCCCO[C@@H](CN(C)C(=O)Nc2ccc(F)cc2)[C@H](C)CN([C@H](C)CO)C(=O)c2cc(NS(=O)(=O)c3ccc(F)cc3)ccc2O1	-123.6[16.7 µM]	-5.8
C[C@@H]1CN([C@@H](C)CO)C(=O)c2cc(NC(=O)CCN3CCOCC3)ccc2O[C@@H]1CN(C)Cc1ccc2c(c1)OCO2	-24.4[16.7 µM]	18.6
CC(C)CC#Cc1ccc2c(c1)O[C@H](CN(C)C(=O)C1CCC1)[C@H](C)CN([C@H](C)CO)S2(=O)=O	20.6[16.7 µM]	0.8
C[C@H]1CN([C@@H](C)CO)S(=O)(=O)c2ccc(C3=CCCC3)cc2O[C@H]1CN(C)C(=O)c1ccncc1	13.6[16.7 µM]	-17.1
COc1ccc(CNC(=O)C[C@H]2CC[C@H](NC(=O)c3cccc(F)c3)[C@@H](CO)O2)cc1	-5.8[16.7 µM]	-16.4
C[C@@H]1CN([C@H](C)CO)C(=O)c2cc(-c3cncnc3)cnc2O[C@H]1CN(C)C(=O)Cc1ccccn1	-0.9[16.7 µM]	0.2
CCCC(=O)Nc1ccc2c(c1)OC[C@H](C)N(C(=O)C1CCCC1)C[C@@H](C)[C@@H](OC)CN(C)C2=O	-10.1[16.7 µM]	9.9
CC(C)C#Cc1cnc2c(c1)C(=O)N([C@H](C)CO)C[C@@H](C)[C@H](CN(C)C(=O)Nc1ccc(F)cc1)O2	0.3[16.7 µM]	9.9
O=C(C[C@H]1C[C@@H]2c3cc(NC(=O)NC4CCCC4)ccc3O[C@@H]2[C@@H](CO)O1)NC1CCCC1	-3.2[16.7 µM]	1.4
C[C@H]1CCCCO[C@H](CN(C)Cc2ccc(C(F)(F)F)cc2)[C@@H](C)CN([C@@H](C)CO)C(=O)c2cc(NC(=O)NC3CCCCC3)ccc2O1	66.5*[16.7 µM]	11.4
O=C(C[C@@H]1C[C@H]2c3cc(NC(=O)C4CCC4)ccc3O[C@H]2[C@H](CO)O1)NCc1ccc(Cl)cc1	-20.4[16.7 µM]	15.0
C[C@@H]1CN([C@@H](C)CO)C(=O)c2cc(C#Cc3cccc(F)c3)cnc2O[C@@H]1CN(C)Cc1ccccn1	16.0[16.7 µM]	-14.3
C[C@@H]1CN([C@@H](C)CO)S(=O)(=O)c2ccc(C3=CCCC3)cc2O[C@H]1CN(C)C(=O)C1CCCCC1	11.3[16.7 µM]	-12.3
CCCC#Cc1cnc2c(c1)C(=O)N([C@@H](C)CO)C[C@@H](C)[C@H](CN(C)C(=O)CN1CCOCC1)O2	4.6[16.7 µM]	-9.4
C[C@H](CO)N1C[C@H](C)[C@@H](CN(C)Cc2cccc(F)c2)Oc2cc(-c3ccccc3)ccc2S1(=O)=O	34.3[16.7 µM]	20.0

Compound profiles, from the list above. Order of values: HIV Env fusion	Yeast UUG start
Record of COc1ccc(CNC(=O)C[C@H]2CC[C@H](NC(=O)c3cccc(F)c3)[C@@H](CO)O2)cc1 = -5.8[16.7 µM]	-16.4
Record of CNC[C@H]1Oc2c(NC(=O)C3CCCCC3)cccc2C(=O)N([C@@H](C)CO)C[C@H]1C = -7.8[16.7 µM]	-5.3
Record of C[C@@H]1CN([C@H](C)CO)S(=O)(=O)c2ccc(C#CC(C)(C)O)cc2O[C@H]1CN(C)Cc1ccccc1 = -2.5[16.7 µM]	9.4
Record of CCNC(=O)C[C@@H]1CC[C@@H](NC(=O)C2CCOCC2)[C@H](CO)O1 = 2.4[16.7 µM]	-12.1
Record of COc1ccc(NC(=O)N(C)C[C@@H]2OCCCC[C@H](C)Oc3ccc(NC(=O)Cc4ccccc4)cc3C(=O)N([C@@H](C)CO)C[C@@H]2C)cc1 = -88.8[16.7 µM]	5.3

The listing continues.
SMILES	HIV Env fusion	Yeast UUG start
C[C@H]1CCCCO[C@@H](CN(C)C(=O)c2ccccc2)[C@@H](C)CN([C@@H](C)CO)C(=O)c2cc(NC(=O)c3ccncc3)ccc2O1	-0.1[16.7 µM]	22.0
C[C@H](CO)N1C[C@H](C)[C@@H](CN(C)Cc2ccccc2)OCCCC[C@H](C)Oc2ccc(NC(=O)C3CCCCC3)cc2C1=O	-14.9[16.7 µM]	23.1
COCC#Cc1cnc2c(c1)C(=O)N([C@H](C)CO)C[C@H](C)[C@H](CN(C)S(=O)(=O)c1cn(C)cn1)O2	-0.7[16.7 µM]	17.1
O=C(CN1CCOCC1)NCC[C@H]1CC[C@@H](NC(=O)Nc2ccc(F)cc2)[C@H](CO)O1	20.8[16.7 µM]	2.4
C[C@H](CO)N1C[C@H](C)[C@H](CN(C)C(=O)C2CCCCC2)OCCCC[C@H](C)Oc2ccc(NS(C)(=O)=O)cc2C1=O	-43.4[16.7 µM]	0.9
Cc1noc(C)c1S(=O)(=O)N(C)C[C@@H]1OCCCC[C@@H](C)Oc2ccc(N(C)C)cc2C(=O)N([C@@H](C)CO)C[C@H]1C	-20.0[16.7 µM]	66.8
O=C(O)C[C@H]1C[C@@H]2c3cc(NC(=O)Nc4ccccc4F)ccc3O[C@@H]2[C@@H](CO)O1	7.0[16.7 µM]	13.5
C[C@@H]1CN([C@@H](C)CO)C(=O)Cc2cc(NS(=O)(=O)c3ccccc3)ccc2O[C@H]1CN(C)S(=O)(=O)c1cccs1	0.1[16.7 µM]	31.9
C[C@@H]1CN([C@@H](C)CO)S(=O)(=O)c2ccc(-c3ccccc3)cc2O[C@@H]1CN(C)Cc1cccc(F)c1	?	1.9
O=C(N[C@@H]1CC[C@H](CCNS(=O)(=O)c2ccc(F)cc2)O[C@@H]1CO)C1CCOCC1	19.8[16.7 µM]	-6.2
C[C@@H]1CN([C@H](C)CO)C(=O)c2cc(N(C)C)ccc2O[C@@H]1CN(C)Cc1ccc(C(F)(F)F)cc1	8.1[16.7 µM]	-5.9
Cc1ccc(S(=O)(=O)Nc2ccc3c(c2)CC(=O)N([C@@H](C)CO)C[C@@H](C)[C@H](CN(C)S(=O)(=O)c2ccccc2)O3)cc1	-13.7[16.7 µM]	-6.4
COCCCN1C(=O)[C@@]2(Cc3ccccc31)c1ccccc1C(=O)N(Cc1ccccc1)[C@H]2c1ccc(CO)cc1	8.8[16.7 µM]	169.5*
O=C(C[C@@H]1C[C@@H]2c3cc(NC(=O)C4CCOCC4)ccc3O[C@@H]2[C@@H](CO)O1)NC1CCCC1	7.8[16.7 µM]	23.4
Cc1ccc(S(=O)(=O)NCC[C@@H]2CC[C@@H](NC(=O)C3CCOCC3)[C@@H](CO)O2)cc1	-5.1[16.7 µM]	-1.2
C[C@H]1CN([C@@H](C)CO)C(=O)Cc2cc(NC(=O)Nc3ccc(C(F)(F)F)cc3)ccc2O[C@H]1CN(C)S(=O)(=O)c1ccccc1	-19.6[16.7 µM]	-6.6

Assay outcomes from PubChem.

Only part of the results is shown, so the mix of outcomes need not match the whole.
